Bioassay records deposited in PubChem by several laboratories.
GALR2 ag: GALR2 receptor agonists, primary screen, cell-based; Galanin receptor type 2 (Homo sapiens), O43603; GALR2-expressing cells, agonist activation read-out; activation, %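 (tested at 5 µM)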; 140,000 tested, 0.48% active; AID 803, 2007;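 active means above mean plus 3 SD of all compounds, about 5% in these data, not always enough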;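 further: 0% = vehicle buffer wells and 100% = reference agonist at full effect; tested in CHO reporter cells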
Target sequence (O43603 whole entry, looked up): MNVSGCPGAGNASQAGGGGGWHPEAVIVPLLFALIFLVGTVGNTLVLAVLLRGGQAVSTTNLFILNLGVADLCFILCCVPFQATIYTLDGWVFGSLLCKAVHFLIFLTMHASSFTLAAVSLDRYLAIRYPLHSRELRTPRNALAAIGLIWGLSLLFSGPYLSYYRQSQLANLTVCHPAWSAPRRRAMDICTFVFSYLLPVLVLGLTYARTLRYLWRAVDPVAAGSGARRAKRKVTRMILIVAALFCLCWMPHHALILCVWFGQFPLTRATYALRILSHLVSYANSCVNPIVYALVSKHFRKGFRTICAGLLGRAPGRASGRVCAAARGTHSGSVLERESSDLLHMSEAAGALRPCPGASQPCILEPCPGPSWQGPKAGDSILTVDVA
RGS16-Gao HTS: modulators of RGS16 binding to Galphao, primary screen, biochemical, human proteins, multiplexed bead flow cytometry | Regulator of G-protein signaling 16 (Homo sapiens) + Guanine nucleotide-binding protein … | bead-based flow cytometry RGS16-Galphao binding, fluorescence; actives lie on both sides | binding response (% of control), % at 10 µM | 220,000 tested, 0.38% active | AID 1441, 2008;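 active means below 25% or above 175%, edge rows of some plates excepted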;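 further: Galphao activated by GDP with aluminum fluoride before binding; 100% = wells without compound and 0% = beads without RGS; some results beyond the cut were filed as inactive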
Target sequence (O15492 whole entry, looked up): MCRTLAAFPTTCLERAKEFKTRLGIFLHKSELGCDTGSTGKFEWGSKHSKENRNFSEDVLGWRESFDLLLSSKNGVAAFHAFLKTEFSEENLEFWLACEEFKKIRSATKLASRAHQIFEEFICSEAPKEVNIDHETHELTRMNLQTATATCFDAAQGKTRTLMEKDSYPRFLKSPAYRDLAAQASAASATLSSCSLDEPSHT
Target sequence (P09471 whole entry, looked up): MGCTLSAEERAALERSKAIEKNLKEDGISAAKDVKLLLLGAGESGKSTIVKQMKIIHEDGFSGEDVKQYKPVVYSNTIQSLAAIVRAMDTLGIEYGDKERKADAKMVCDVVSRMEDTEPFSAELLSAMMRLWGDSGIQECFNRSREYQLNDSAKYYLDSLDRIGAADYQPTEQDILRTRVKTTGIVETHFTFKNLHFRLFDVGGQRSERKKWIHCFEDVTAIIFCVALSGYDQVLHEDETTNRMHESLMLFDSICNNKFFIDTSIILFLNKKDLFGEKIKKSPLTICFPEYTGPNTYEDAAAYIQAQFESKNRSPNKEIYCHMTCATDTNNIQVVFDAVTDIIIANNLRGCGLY
HSV augment: enhancers of HSV replication in host cells, fold increase, host cell viability; HSV replication augmentation in cells; maximum fold increase; 220,000 tested, 0.005% active;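 active means peak rise of 1.5-fold or more in the series; tested in PC3 cells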;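 further: first round at 10 µM; read as green reporter fluorescence; hits show the peak of a series up to 25 µM; 1 = signal of infected wells without compound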
INS promoter inh: inhibitors of insulin promoter-driven GFP, primary screen, imaging, TRM-6 cells (human fetal islet line), eGFP reporter, cell count. reporter expression induced with tamoxifen. inhibition, % at 2 µM. 130,000 tested, 0.9% active;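 active means inhibition above the mean plus 3 SD, with well images judged a real hit on visual review, cut at about 60% in these data, passing the limit was not always enough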
PKD1 inh: inhibitors of human PKD1 kinase, biochemical, fluorescence polarization. Serine/threonine-protein kinase D1 (Homo sapiens), Q15139. PKD1 kinase fluorescence polarization assay. inhibition, %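 (about 10 µM by stock and volumes)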. 200,000 tested, 0.056% active. AID 797, 2007;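 active means inhibition of 50% or more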;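 further: controls were vehicle for no effect and a reference inhibitor for full effect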
INS promoter inh cell count: further read-out of INS promoter inh, marked with its call; normalized cell count, %; measured here: cell count, toxicity; reference of the scale not given here;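 cells exposed to compound for 48 h; stained nuclei by imaging scaled within each plate; lower means fewer cells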
HSV augment primary fold: also measured in HSV augment; calls as there; fold increase; compound at 10 µM; measured here: primary screen fold increase 10 uM; tested in PC3 cells;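 GFP signal in the first replicate; 1 = infected wells without compound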
Starred values were filed as active, the others as inactive; i = inactive; x = no result given.

SMILES | GALR2 ag | RGS16-Gao HTS | HSV augment | HSV augment primary fold | INS promoter inh | INS promoter inh cell count | PKD1 inh
Cc1cc(O)c2c(c1)C(O)(C1OC(CO)C(O)C(O)C1O)c1cccc(O)c1C2=O (configuration not stated) | -0.8 | 102.4 | i | 0.93 | 4.8 | 111.6 | -15.0
Cc1ccc2nc3c(nc2c1C)C(O)=C3O | x | 103.3 | i | 1.08 | x | x | x
NC(=O)NC(=O)C[n+]1cccc(/C=N/O)c1 | x | 105.1 | i | 1.03 | x | x | 1.6
COc1ccc(CN2C(=O)c3ccccc3C2C(=O)NCc2cccnc2)c(OC)c1 (configuration not stated) | -0.5 | 104.8 | i | 1.11 | 16.1 | 56.5 | -13.8
COc1ccc(C(OC(=O)c2ccco2)C(=O)NCc2ccco2)cc1 (configuration not stated) | 0.2 | 102.5 | i | 1.06 | x | x | 1.6
Cc1cccc(-c2noc(CNC(=O)Nc3ccc(F)cc3)n2)c1 | x | 107.7 | i | 1.17 | -63.2 | 84.1 | 1.0
CCN(CC)c1ccc(C(=O)n2cnc3ccccc32)cc1 | -0.5 | 100.6 | i | 0.75 | x | x | 2.7
COc1cc(C)ccc1OCCCCN1CC(C)OC(C)C1 (configuration not stated) | -1.6 | 104.2 | i | 0.85 | -20.0 | 76.6 | -2.6
NC(=O)CC(NC(=O)c1ccccc1)c1ccc(N2CCC(Br)CC2)c([N+](=O)[O-])c1 (configuration not stated) | x | 113.2 | i | 0.925 | x | x | x
N#Cc1cnc(NN)nc1 | x | 98.8 | i | 1.05 | x | x | 1.7
O=C(CNC(=O)c1ccccc1)OCc1cccc([N+](=O)[O-])c1 | -1.0 | 103.2 | i | 1.17 | -62.1 | 104.8 | 1.0
O=C(CCc1ccccc1)OCCN1CCOCC1 | -2.3 | 121.2 | i | 0.98 | 22.6 | 66.2 | -3.4
COc1ccc(C2=NN(CN3C(=O)C(=O)c4ccccc43)C(c3ccc(C)cc3)C2)cc1 (configuration not stated) | -0.5 | 95.6 | i | 0.91 | 14.3 | 140.1 | -1.2
COc1ccc([N+](=O)[O-])cc1N(CC(=O)NCc1ccco1)S(C)(=O)=O | x | 99.5 | i | 0.89 | x | x | -6.2
C=CCNC(=S)N1CCC(C(=O)c2ccc3c(c2)OCCO3)CC1 | x | 107.0 | i | 1.02 | x | x | -0.8
CCCCCCN=CC1=C(O)CC(C)(C)CC1=O | -2.7 | 96.1 | i | 0.99 | x | x | -9.9
CCc1nnc(NC(=O)CSc2nnc(-c3ccccc3NC(=O)c3ccccc3)o2)s1 | -1.2 | 99.8 | i | 0.89 | 3.1 | 122.0 | -3.1
CNCCCC1Sc2ccccc2Oc2ccccc21 (configuration not stated) | -0.9 | 86.8 | i | 0.927 | -325.0 | 74.8 | 3.2
O=C(CCC(=O)NNc1nc2ccccc2c2nc(-c3ccccc3)nn12)NCCCN1CCOCC1 | x | 110.9 | i | 0.9 | 0.0 | 95.2 | 3.3
CCOc1ccc(-c2nc(C)c(C(C)=O)n2O)cc1 | -2.0 | 104.2 | i | 0.98 | 29.6 | 118.8 | -6.7
Cc1nc2cc(NC(=O)N3CCCC3)ccc2n1C | x | 147.2 | i | 0.98 | 57.1 | 99.8 | -5.0
CC(C)NC(C(=O)Nc1cc(Cl)cc(Cl)c1)c1ccccc1 (configuration not stated) | -2.0 | 96.6 | i | 0.89 | 5.4 | 51.2 | -9.7
Cc1occc1-c1nc(-c2ccccn2)no1 | 0.5 | 100.3 | i | 0.86 | x | x | 3.9
CCOC(=O)c1ccc(COC(=O)c2nonc2N)cc1 | 0.1 | 101.6 | x | x | 50.0 | 98.4 | -7.4
N#Cc1nc(Cc2ccccc2)oc1N1CCN(c2ccccc2)CC1 | 0.7 | 80.8 | i | 1.02 | 50.0 | 113.7 | -8.0
(more compounds)
SMILES | GALR2 ag | RGS16-Gao HTS | HSV augment | HSV augment primary fold | INS promoter inh | INS promoter inh cell count | PKD1 inh
CCOC(=O)c1ccccc1NC(=O)CN(c1ccc(OCC)cc1)S(C)(=O)=O | x | 36.1 | i | 0.76 | -386.7 | 31.6 | 5.4
COC(=O)C1=NNC2(c3ccc(Cl)cc3)C(=O)N(c3ccc(Cl)cc3)C(=O)C12 (configuration not stated) | 0.2 | 100.6 | i | 1.04 | x | x | -6.3
Cc1ccccc1C(O)c1ccccn1 (configuration not stated) | -0.5 | 203.3 | i | 1.07 | x | x | -6.3
O=C(COC(=O)c1cccnc1Cl)c1ccc(F)cc1 | x | 103.1 | i | 0.94 | -426.3 | 135.3 | 4.5
CC1(C)CC2CC(C)(CN2c2ncnc3ccc(Br)cc23)C1 (configuration not stated) | 2.3 | 121.2 | i | 0.83 | 6.2 | 105.7 | -0.2
CC(NCc1ccncc1)C12CC3CC(CC(C3)C1)C2 (configuration not stated) | x | 100.5 | i | 1.02 | x | x | 0.0
COc1ccc(CCNC(=O)CSc2nnnn2Cc2ccc3c(c2)OCO3)cc1OC | -1.1 | 98.2 | i | 0.947 | 0.0 | 100.6 | 1.1
Cc1ccc(C(=O)NNc2cc(=O)n(C)c(=O)n2C)cc1C | -1.3 | 98.9 | i | 1.17 | x | x | -2.2
CCCn1c(SCC(=O)NCc2ccco2)nnc1-c1ccncc1 | x | 104.4 | i | 0.98 | x | x | 1.6
CCOC(=O)CSc1nc(N)cc(=O)[nH]1 | -0.5 | 97.1 | i | 0.94 | x | x | -4.9
CCOC(=O)c1[nH]c(C(=O)O)c(OC(=O)CC)c1C | x | 96.9 | i | 1.19 | x | x | x
O=C(O)CCC(=O)Nc1sc2c(c1C(=O)Nc1ccccc1)CCCCC2 | x | 99.1 | i | 1.28 | 35.7 | 105.9 | 2.3
Cc1ccc(CCNc2ccccc2C)cn1 | -2.0 | 102.9 | i | 0.97 | 73.7 | 93.8 | -10.0
COC(=O)c1ccc(NC(=O)CSC2=Nc3ccccc3C3CC=NN23)cc1 (configuration not stated) | -3.4 | 87.6 | i | 0.86 | -5.4 | 72.7 | -4.5
CCOc1cc(NC(=O)c2ccccn2)c(OCC)cc1NC(=O)CC(C)C | -0.2 | 120.7 | i | 0.93 | -7.9 | 134.7 | 4.6
CC(C)(C)NC(=O)NC(=O)CN1CCN(S(=O)(=O)c2ccccc2)CC1 | x | 102.4 | i | 0.98 | x | x | x
O=C1CCC/C(=N/NC(=O)c2ccc(NS(=O)(=O)c3cccs3)cc2)C1 | x | 105.2 | i | 1.23 | 9.1 | 94.9 | 0.0
Cc1ccc(S(=O)(=O)CC(=O)Nc2ccc(Cl)cn2)cc1 | x | 111.1 | i | 0.92 | x | x | 0.3
CCOc1ccc(C(=O)/C=C/c2cn(CN3CCN(C)CC3)c3ccccc23)cc1 | 12.0* | 106.4 | i | 0.9 | 52.8 | 66.2 | 0.2
Cc1nn(Cc2ccc(C(=O)O)o2)c(C)c1[N+](=O)[O-] | x | 104.5 | i | 1.01 | x | x | -7.6
CCC1CCCCN1C(=O)Cn1c(C(=O)OC)cc2ccsc21 (configuration not stated) | 1.0 | 101.3 | i | 1.08 | -18.2 | 67.6 | -9.6
O=C(NCC1CCCO1)c1ccc2c(c1)OCO2 (configuration not stated) | 0.2 | 103.2 | i | 1.1 | x | x | 0.9
O=C(Cn1ncc2c(=O)oc3ccccc3c21)NCc1cccnc1 | x | 97.7 | i | 1.16 | x | x | 3.3
O=C(NC1CC2CCCC(C1)N2C(=O)NC1CCCCC1)c1ccccc1 (configuration not stated) | -2.1 | 96.8 | i | 1.12 | 41.7 | 122.0 | -1.8
O=C(NCC1CCCN(Cc2ccccc2F)C1)c1cccc(C(F)(F)F)c1 (configuration not stated) | x | 99.8 | i | 0.97 | x | x | -0.8

3 compounds out of the list above, arranged by the value under GALR2 ag, ascending:
| compound | GALR2 ag |
| --- | --- |
| CCOc1ccc(-c2nc(C)c(C(C)=O)n2O)cc1 | -2.0 |
| O=C(NCC1CCCO1)c1ccc2c(c1)OCO2 (configuration not stated) | 0.2 |
| Cc1occc1-c1nc(-c2ccccn2)no1 | 0.5 |

The results go on.
SMILES | GALR2 ag | RGS16-Gao HTS | HSV augment | HSV augment primary fold | INS promoter inh | INS promoter inh cell count | PKD1 inh
Nc1cc(N)nc(SCC(=O)Nc2ccccc2)n1 | -0.7 | 110.8 | i | 0.963 | -31.2 | 157.0 | -7.8
Cc1nn(Cc2ccc([N+](=O)[O-])cc2)c(=O)n1-c1c(F)cccc1F | -2.1 | 100.5 | i | 1.01 | -23.3 | 48.5 | -0.6
CCN(CC)CCCOC(=O)C1(c2ccccc2)CCCC1 | -1.3 | 98.1 | i | 1.02 | 6.9 | 76.7 | -6.0
Cc1c(Cl)cccc1NC(=S)NCc1cccn1C | -1.8 | 107.4 | i | 1.21 | 13.3 | 126.2 | -3.7
Cc1ccc(-c2cc3cccc[n+]3cc2-c2ccc(C)cc2)cc1 | 0.3 | 65.3 | i | 0.76 | 13.3 | 94.5 | -1.1
O=C(c1cc(F)ccc1F)C1CCCN(C(=O)c2ccco2)C1 (configuration not stated) | x | 102.1 | i | 1.16 | x | x | 1.6
O=c1ccn(Cc2ccccc2)cc1 | x | 103.3 | i | 0.82 | x | x | x
Cc1ccc(NC(=O)CCS(=O)(=O)c2ccc(Br)cc2)nc1 | -1.1 | 108.9 | i | 1.15 | -36.7 | 119.5 | -1.7
Cc1nc2c(oc3ccc(Cl)cc32)c(=O)[nH]1 | x | 99.4 | i | 0.89 | x | x | x
C=CCNc1nnc(SC2CC(=O)N(c3ccc(OC)cc3)C2=O)s1 (configuration not stated) | -2.7 | 114.9 | i | 0.98 | 0.0 | 156.5 | 2.2
COC(=O)CC/C(C)=N\Nc1ccc([N+](=O)[O-])cc1[N+](=O)[O-] | -3.1 | 103.7 | i | 1.03 | x | x | 8.0
CC1(C)CC(=O)C2=C(C1)N(Cc1ccco1)C(=O)C2(O)C(F)(F)F (configuration not stated) | -2.0 | 114.7 | i | 0.93 | -7.1 | 83.6 | 2.6
CCC(C)NC(=O)CC(NS(=O)(=O)c1ccc(C)cc1)c1ccc(OC)cc1 (configuration not stated) | -2.1 | 89.2 | i | 1.03 | -5.6 | 55.6 | -8.9
Cc1ccc(-c2nc3ncccc3o2)cc1NC(=O)Cc1ccc(Cl)cc1 | 0.4 | 106.4 | i | 0.92 | 0.0 | 90.3 | -2.1
CCOc1ccc(S(=O)(=O)NCC2CCCO2)cc1 (configuration not stated) | -0.5 | 103.3 | i | 1.03 | 35.7 | 45.0 | -4.7
CCCCOc1cccc(C(=O)O)c1 | -1.7 | 93.5 | i | 0.87 | -51.5 | 132.2 | 1.4
CNC(=O)c1oc(-c2ccc(Cl)cc2)nc1C | x | 96.6 | i | 1.02 | x | x | -5.5
CC(C(=O)c1ccccc1)n1cnc2ccccc2c1=O (configuration not stated) | -1.2 | 117.8 | i | 0.94 | -24.9 | 97.2 | -4.2
COc1ccc(/C=C/C(=O)c2c(O)c(OC)c3occc3c2OC)cc1 | x | 135.1 | i | 0.87 | x | x | -1.7
CCOC1(NC(=O)c2ccccc2)C(C)=CC(=O)C=C1C | -2.5 | 105.8 | i | 0.88 | -6.2 | 96.5 | -6.8
CCN(CC)C1CC(=O)N(c2cccc(C)c2)C1=O (configuration not stated) | -2.5 | 106.9 | i | 0.88 | x | x | -11.0
CCNS(=O)(=O)c1cc(S(C)(=O)=O)ccc1Cl | -4.2 | 102.8 | i | 0.72 | -21.4 | 93.2 | 5.9
COc1cccc(NC(=O)CSc2nnc(-c3cc(-c4ccccn4)nc4ccccc34)o2)c1 | -0.8 | 97.7 | i | 0.86 | -25.9 | 64.3 | -9.3
Cc1nn(C(=O)CNC(=O)c2ccccc2)c(C)c1C | x | 103.6 | i | 1.03 | 22.2 | 123.1 | -7.2
CCC(=O)Nc1nc(CC(=O)Nc2ccccc2)cs1 | -2.9 | 101.2 | i | 1.02 | -5.6 | 119.3 | 2.9
CCSc1nc(NCCN(C)C)c2c3c(sc2n1)COC(C)(CC)C3 (configuration not stated) | x | 107.6 | i | 0.83 | x | x | x
Cc1cccc(NC(=O)c2cnn3ccccc23)c1C | x | 96.7 | i | 0.97 | x | x | x
Cc1onc(-c2c(F)cccc2Cl)c1C(=O)OCC(=O)NC1CC1 | x | 155.6 | i | 1.06 | -16.7 | 86.4 | 2.4
C=CCN=C1CCCc2c1[nH]c1ccc(C)cc21 | x | 100.6 | i | 1.13 | 36.4 | 112.5 | 7.4

Structures listed so far that bear a hit mark in GALR2 ag.
mol	GALR2 ag	RGS16-Gao HTS	HSV augment primary fold	PKD1 inh
CCOc1ccc(C(=O)/C=C/c2cn(CN3CCN(C)CC3)c3ccccc23)cc1	12.0*	106.4	0.9	0.2
